YopH PTP inh = inhibitors of Yersinia enterocolitica YopH tyrosine phosphatase; fluorescence Ex485/Em525; inhibition, %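 (about 10 µM by stock and volumes)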; 140,000 tested, 0.16% active; AID 898;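 active = inhibition of 50% or more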;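 also: controls were vehicle for no effect and minimum signal wells for full effect; inactives centre near -20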
Mtb growth = M. tuberculosis H37Rv growth inhibitors, H37Rv strain (AID 1626). M. tuberculosis H37Rv growth inhibition; higher % means a stronger effect. inhibition, % at 10 µM; hits with a dose series show IC50 in µM. 220,000 tested, 0.95% active;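 active = confirmed in a dose series; inconclusive = inhibition above 80% but not taken into the dose series; inactive = below 80% or under 30% at every dose of the series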;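 also: bacteria incubated seven days before Alamar blue readout; 0% = bacteria only wells and 100% = bacteria with antibiotic wells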
RecA intein inh = Mtb RecA intein splicing inhibition | 290,000 tested, 0.75% active | cell-free RecA intein splicing, fluorescence | inhibition, %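 (about 9 µM by stock and volumes)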 | AID 2221; in the data active = inhibition above about 30%; inconclusive = no clear call, values can overlap the other calls;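 also: 0% = vehicle wells and 100% = reference inhibitor control wells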
Target sequence (P9WHJ3 whole entry, looked up): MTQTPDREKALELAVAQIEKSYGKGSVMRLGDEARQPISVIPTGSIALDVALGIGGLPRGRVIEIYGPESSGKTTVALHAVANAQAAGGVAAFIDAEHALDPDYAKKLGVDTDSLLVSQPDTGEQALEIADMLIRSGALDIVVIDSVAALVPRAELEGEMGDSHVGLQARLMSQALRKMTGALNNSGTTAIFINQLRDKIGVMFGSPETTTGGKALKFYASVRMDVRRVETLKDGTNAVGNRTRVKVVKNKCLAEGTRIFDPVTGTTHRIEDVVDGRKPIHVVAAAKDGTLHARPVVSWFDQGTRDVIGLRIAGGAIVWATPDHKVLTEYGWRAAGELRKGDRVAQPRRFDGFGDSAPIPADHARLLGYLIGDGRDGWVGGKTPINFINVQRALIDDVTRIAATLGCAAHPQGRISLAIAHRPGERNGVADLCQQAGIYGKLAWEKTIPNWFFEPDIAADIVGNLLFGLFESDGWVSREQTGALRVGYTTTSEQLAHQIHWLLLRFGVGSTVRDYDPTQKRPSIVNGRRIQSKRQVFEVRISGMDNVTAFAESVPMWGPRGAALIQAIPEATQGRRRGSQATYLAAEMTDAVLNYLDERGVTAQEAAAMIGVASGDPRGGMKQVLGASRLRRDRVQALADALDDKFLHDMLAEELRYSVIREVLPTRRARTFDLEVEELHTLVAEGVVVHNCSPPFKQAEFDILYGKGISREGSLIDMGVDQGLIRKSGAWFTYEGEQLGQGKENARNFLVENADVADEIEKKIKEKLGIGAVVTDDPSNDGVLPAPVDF
Mtb betalactam = beta-lactam sensitization of Mtb H37Rv. M. tuberculosis H37Rv growth with meropenem, percent inhibition; hits of this screen are not shown here. inhibition, % at 25 µM. 330,000 tested, 0.27% active;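 active = about 74% or more and at least 40 points above the plate without the antibiotic, then above 30% in a dose series; inconclusive = first-round hits that could not be retested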;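 also: growth measured after seven days incubation then overnight dye step; 0% = bacteria only wells and 100% = bacteria with antibiotic; twin plates without the antibiotic show which effects depend on it; some results filed as inactive read as strong as hits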
Arbovirus anti = arbovirus infection inhibition. 200,000 tested, 0.37% active. inhibition, % at 10 µM. arbovirus infection cell-based antiviral screen;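 active = inhibition from about 30%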;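 also: bluetongue infection of BSR cells; cell survival read as ATP light after 72 h; 0% = infected wells without compound and 100% = uninfected wells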
Arbovirus anti repeat = further read-out of Arbovirus anti, marked with its call; inhibition, %; measured here: 10K subset replicate screen; many hits read low in the repeat;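 first of two repeat runs on a subset; 0% = infected and 100% = uninfected wells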
* hit, by the source's call; ? = inconclusive; / = no result given. The list is partial. The share of hits here may be higher or lower than overall.

SMILES	YopH PTP inh	Mtb growth	RecA intein inh	Mtb betalactam	Arbovirus anti	others
Cc1ccc(CNC(=O)Cn2cccc2C(=O)c2ccccc2)cc1	-6.3	1.4%	1.2	6.1	-2.9
Clc1ccc2c(c1)C(N1CCNCC1)=Nc1ccccc1O2	-30.5	2.0%	-1.0	-5.7	-5.3
O=C(COC(=O)c1ccc(S(=O)(=O)N2CCCC2)cc1)NCc1ccc(Cl)cc1	-0.7	-1.7%	/	-0.5	-8.3
Cc1ccc(-c2ccc(=O)n(Cc3c(F)cccc3Cl)n2)cc1	/	/	-1.2	97.8	/
CCOC(=O)NC(=O)/C(C#N)=N/Nc1ccc(F)cc1	-70.7	2.1%	-0.1	-20.0	-2.6
Cc1ccc(Cl)cc1NC(=O)C1C2CCC(O2)C1C(=O)O (configuration not stated)	/	/	0.9	5.5	/
Cc1nn(CC(=O)NCc2ccccc2F)c(C)c1[N+](=O)[O-]	/	-2.8%	0.8	4.1	2.4
Cc1occc1C(=O)NC(C)c1ccc2c(c1)OCO2 (configuration not stated)	-30.6	1.1%	0.9	-1.7	-6.0
Cc1c(NC(=O)c2ccc(Br)o2)cccc1C(=O)O	-27.9	-7.9%	-1.9	-6.5	10.8
Cc1cc(C(=O)CSc2nnc3ccccn23)c(C)n1-c1ccccc1	-27.8	-0.7%	-0.5	2.5	4.8
CC1CCN(C(=S)c2ccc(-c3ccc(Cl)cc3Cl)o2)CC1	-12.6	11.3%	6.5	-1.1	5.1
O=C(NCc1ccccc1)C1=C[C@H](c2ccc(C(F)(F)F)cc2)C[C@H](OCCCCO)O1	/	-11.6%	4.9	-8.5	/
Cc1cc(NC(=O)NCC(F)(F)F)no1	/	-5.8%	-2.2	3.9	/
CCOC(=O)Cc1nnc(NC(=O)C(CC)Sc2nc(C)cc(=O)[nH]2)s1 (configuration not stated)	-29.2	-0.8%	-1.0	3.6	3.0	Arbovirus anti repeat=5.4
O=C(NC(N1CCOCC1)C(Cl)(Cl)Cl)c1ccco1 (configuration not stated)	/	-7.0%	-2.1	-2.5	5.0
COc1ccc(N(C(C)=O)c2nc3ccccc3[nH]2)cc1	/	/	-0.2	-6.9	/
Cc1[nH]c2ccccc2c1-c1csc(NC(=O)CSCCO)n1	/	-1.2%	-2.8	3.9	13.5
O=C(COCC(=O)Nc1cccc(C(F)(F)F)c1)Nc1cccc(C(F)(F)F)c1	-9.8	1.7%	-4.7	87.3	-14.2
COCCCNC(=O)c1c(NC(=O)c2ccccc2Cl)n(Cc2ccccc2)c2nc3ccccc3nc12	-1.7	-3.9%	-6.1	2.6	1.8
Cn1c2c(c(=O)n(C)c1=O)C(NC(=O)c1cccs1)(C(F)(F)F)C(=O)N2 (configuration not stated)	-56.5	-10.9%	/	0.8	4.1
Cc1cc(C(F)(F)F)n(-c2nc(C(=O)Nc3ccccc3Oc3ccccc3)cs2)n1	-27.6	-6.9%	/	/	-3.6
Cc1ccnc(-n2c(C)nc3ccccc3c2=O)c1	-19.5	-4.3%	-1.5	2.9	5.0	Arbovirus anti repeat=0.4
COc1cc(C(=O)OCC(=O)Nc2ccc(F)cc2F)cc(OC)c1OC	0.2	-4.0%	-0.7	-18.4	-4.5
CCN(CC)C(=O)C[n+]1cccc(/C=N/O)c1	-18.7	-2.8%	-0.2	-2.4	0.6
COCCNC(=O)c1cc(S(=O)(=O)N(C)c2ccccc2OC)ccc1C	/	-9.0%	3.5	-4.3	/
(list continues)
SMILES	YopH PTP inh	Mtb growth	RecA intein inh	Mtb betalactam	Arbovirus anti	others
Cc1ccc(N(CC(=O)Nc2c(C)cccc2C)S(C)(=O)=O)cc1	/	/	0.7	-1.9	/
CN(CCOc1ccccc1)CC(=O)Nc1ccc(S(=O)(=O)N2CCCC2)cc1	/	-14.3%	-1.7	-1.6	/
CCC(C)N1C(=O)CCC1C(=O)N1CCN(c2ccc(F)cc2)CC1 (configuration not stated)	-7.7	/	-12.6	-4.9	9.4
C/C=C1/CN2[C@@H]3C4CO[C@@H]3c3c([nH]c5cc(OC)ccc35)[C@@H]2CC14 (some centres not stated)	/	-8.2%	-1.4	-8.3	/
CC(=O)N1CCN(c2cc(N3CCCC3)c(F)cc2[N+](=O)[O-])CC1	/	5.4%	1.2	-6.7	9.3
CCC[C@H](CN[C@@H](CNC)[C@H](C)O)NCCc1ccc(OC)cc1	/	/	0.5	-10.9	/
Cc1[nH]c2ccc(-c3nnc(SCC(=O)c4ccc(F)cc4)o3)cc2c1C	-29.3	7.7%	-9.5	-0.7	-19.2
CCOc1ccc(C2=C/C(=C/c3cccnc3)C(=O)O2)cc1	-6.0	-12.3%	1.2	1.4	-3.2
CC1=C(C(=O)N(C)C)C(c2ccc(Cl)c(Cl)c2)NC(=O)N1 (configuration not stated)	-30.9	-3.7%	1.4	-3.4	8.7
CC(=O)c1cc(C#N)c(SCCC(C)C)nc1C	-36.7	9.9%	1.8	-2.8	-2.1
O=[N+]([O-])c1cc(Cl)ccc1Sc1cccc2cccnc12	-2.4	28.5%	-2.2	34.0	6.6
CN(C)C(=O)COC(=O)c1cc(Cl)cc(Cl)c1N	-13.6	-17.2%	-6.0	-15.0	0.4
COc1cccc(NC(=O)C(Cc2ccccc2)NC(=O)C2CCC(C)CC2)c1 (configuration not stated)	-26.5	5.2%	14.6	6.8	-9.3
CCn1c(SCc2ccccc2F)nnc1-c1ccncc1	/	/	1.3	-4.0	/
O=C(COc1ccc(Cl)cc1)NCc1ccccc1	/	/	-1.2	-4.3	/
COc1ccc(NC(=O)CSc2ccc(-c3ccccn3)nn2)cc1OC	-21.0	27.9%	-3.4	71.7	-35.8
Clc1ccc(-c2nnc(SCc3ccon3)o2)c(Cl)c1	-72.2	?	2.5	89.1	4.0
COCCNC(=S)NC(=O)CC12CC3CC(CC(C3)C1)C2	-29.5	-0.1%	0.7	5.9	-5.1
O=C(CSc1nc2c(c(=O)n1-c1ccc(Cl)cc1)SCC2)NCc1ccco1	-17.8	/	1.6	-9.2	8.6	Arbovirus anti repeat=3.8
COc1cc(SC#N)ccc1N=Cc1c(C)[nH]n(-c2ccc(C)c(C)c2)c1=O	-2.6	42.9%	-5.2	0.4	-31.2
Cc1ccc(CCNS(=O)(=O)c2ccc3c(c2)C(C)(C)C(=O)N3C)cc1	/	/	1.5	-10.6	/
COc1cc(/C=C/C(=O)OCC(=O)NCc2cccs2)ccc1OC(F)F	-29.1	6.6%	7.4	3.6	0.9
COc1cc(OC)c2ccc(=O)oc2c1C(CC(=O)N1CCCC1)c1ccc(N(C)C)cc1 (configuration not stated)	/	-4.1%	-0.4	-10.7	/
O=C1CSC(c2ccccc2)N1CC12CC3CC(CC(O)(C3)C1)C2 (configuration not stated)	-29.5	3.7%	-1.3	0.4	-4.9
COc1nc(NCc2cccnc2)nc(NC2CCCCC2)n1	-18.0	9.6%	0.7	-8.1	-1.4
More compounds.
SMILES	YopH PTP inh	Mtb growth	RecA intein inh	Mtb betalactam	Arbovirus anti	others
CCOc1ccc2ccccc2c1CNc1nnnn1C	/	2.7%	1.9	4.4	1.9
O=C(N/N=C/c1ccccn1)c1ccc(S(=O)(=O)N2CCCCCC2)cc1	/	2.3%	-1.7	-3.2	-4.3
CCOc1cc(NC(=O)CC(C)C)c(OCC)cc1NC(=O)CCn1nnc2ccccc21	-14.2	-2.3%	-3.4	-14.1	6.1
CCCCn1c(N)c(N(CC(C)C)C(=O)CCNC(=O)c2ccccc2Cl)c(=O)[nH]c1=O	/	/	-1.0	-18.1	/
CCOC(=O)c1cccnc1SCC(=O)Nc1ccc(C)cc1	/	-2.0%	-1.0	4.4	-3.3
CC1Cc2ccccc2N1CC(=O)NC(=O)NC1CCCCC1 (configuration not stated)	/	2.1%	1.8	-1.5	12.4
COc1cc(/C=N/NC(=O)c2ccncc2)ccc1OCc1cnc(Cl)s1	/	?	/	98.1	6.0
CS(=O)(=O)c1ccc(C(=O)Nc2cccc(-c3nc4ccccc4[nH]3)c2)cc1	/	/	3.3	0.0	/
O=C(NCCCN1CCCCCC1)c1ccc2c(Cl)c3c(nc2c1)CCCC3	/	-2.4%	8.8	0.8	6.8
Cc1ccc(Nc2cc(=O)[nH]c(=O)[nH]2)c(C)c1	10.5	/	2.5	1.9	3.3
CCOc1ccccc1N1CC(C(=O)Nc2cccc(S(=O)(=O)N3CCCCC3)c2)CC1=O (configuration not stated)	/	3.9%	-4.0	-6.9	11.9
O=C(NCCCn1ccnc1)/C(=C/c1ccccc1)NC(=O)c1ccccc1	/	-1.9%	-1.7	-3.7	1.6
CC(=O)Nc1cc2c(cc1Br)OCCO2	-6.2	-1.9%	0.7	2.2	-4.1
CCOc1ccc(OCC)c(C2C(C#N)=C(N)N(c3cccnc3)C3=C2C(=O)CC(C)(C)C3)c1 (configuration not stated)	-20.1	3.7%	-1.4	-0.9	4.7
Cc1ncc([N+](=O)[O-])n1CCOC(=O)NC(NCc1ccccc1)C(Cl)(Cl)Cl (configuration not stated)	-12.6	-4.4%	-0.4	-9.3	-5.2
COC(=O)c1cc(N2CCNCC2)nc2ccccc12	/	-8.5%	-44.2	-5.2	/
CN(C)C(=O)N1CCC(C(=O)NCc2ccc(F)cc2)CC1	-42.2	5.2%	-1.0	4.0	2.3	Arbovirus anti repeat=2.8
CC(C)C(=O)N1CCN(c2ccc(NC(=O)COc3ccccc3[N+](=O)[O-])cc2)CC1	/	5.0%	-3.5	-0.3	4.1
c1cncc(-c2nc(NCC3COc4ccccc4O3)c3ccccc3n2)c1 (configuration not stated)	-38.0	/	18.3	97.9	-35.5
CCOc1ccccc1N1CCN(C(=S)Nc2ccc(S(=O)(=O)Nc3ncccn3)cc2)CC1	/	/	0.1	-2.9	/
CCC(=O)N1CCN(c2ccc(Cl)cc2NC(=O)c2ccc3c(c2)OCCO3)CC1	4.0	3.8%	5.5	19.4	-1.8
CCc1ccc(/C=C/C(=O)c2ccc(S(=O)(=O)N(C)C)cc2)cc1	-31.1	6.7%	3.4	1.2	-3.4

By substructure: those above containing an aryl methoxy group.
SMILES	YopH PTP inh	Mtb growth	RecA intein inh	Mtb betalactam	Arbovirus anti	others
COc1ccc(N(C(C)=O)c2nc3ccccc3[nH]2)cc1	/	/	-0.2	-6.9	/
COc1cc(C(=O)OCC(=O)Nc2ccc(F)cc2F)cc(OC)c1OC	0.2	-4.0%	-0.7	-18.4	-4.5
COCCNC(=O)c1cc(S(=O)(=O)N(C)c2ccccc2OC)ccc1C	/	-9.0%	3.5	-4.3	/
C/C=C1/CN2[C@@H]3C4CO[C@@H]3c3c([nH]c5cc(OC)ccc35)[C@@H]2CC14 (some centres not stated)	/	-8.2%	-1.4	-8.3	/
CCC[C@H](CN[C@@H](CNC)[C@H](C)O)NCCc1ccc(OC)cc1	/	/	0.5	-10.9	/
COc1cccc(NC(=O)C(Cc2ccccc2)NC(=O)C2CCC(C)CC2)c1 (configuration not stated)	-26.5	5.2%	14.6	6.8	-9.3
COc1ccc(NC(=O)CSc2ccc(-c3ccccn3)nn2)cc1OC	-21.0	27.9%	-3.4	71.7	-35.8
COc1cc(SC#N)ccc1N=Cc1c(C)[nH]n(-c2ccc(C)c(C)c2)c1=O	-2.6	42.9%	-5.2	0.4	-31.2
COc1cc(/C=C/C(=O)OCC(=O)NCc2cccs2)ccc1OC(F)F	-29.1	6.6%	7.4	3.6	0.9
COc1cc(OC)c2ccc(=O)oc2c1C(CC(=O)N1CCCC1)c1ccc(N(C)C)cc1 (configuration not stated)	/	-4.1%	-0.4	-10.7	/
COc1nc(NCc2cccnc2)nc(NC2CCCCC2)n1	-18.0	9.6%	0.7	-8.1	-1.4
COc1cc(/C=N/NC(=O)c2ccncc2)ccc1OCc1cnc(Cl)s1	/	?	/	98.1	6.0

Random excerpt: 2 entries already listed.
SMILES	YopH PTP inh	Mtb growth	RecA intein inh	Mtb betalactam	Arbovirus anti	others
CN(C)C(=O)N1CCC(C(=O)NCc2ccc(F)cc2)CC1	-42.2	5.2%	-1.0	4.0	2.3	Arbovirus anti repeat=2.8
CCOc1cc(NC(=O)CC(C)C)c(OCC)cc1NC(=O)CCn1nnc2ccccc21	-14.2	-2.3%	-3.4	-14.1	6.1

Compound activity as filed in PubChem.
